PD-1 reverse act: reversal of PD-1 mediated T-cell inhibition. 29,000 tested, under 10 active. activation, % (no concentration beside the values). primary human CD4 T cells, PD-L1 beads, CellTiter-Glo 96 h. AID 2316;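 active means replicate mean of 50% or more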;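 further: 0% = median vehicle wells and 100% = positive control; 100 nL library stock added to about 50 µL; numbers are from one replicate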
YB-1 expr inh: YB-1 expression inhibition; U2OS, qRT-PCR YB-1 vs CDIP delta delta Cp, 16 h; stronger effect = higher value; zero = DMSO, each unit about twofold; delta delta Cp (YB-1 minus CDIP) (test concentration not listed); actives 0.37% (n = 30,000); AID 434959;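 active means delta delta Cp rounded down to an integer at or above 3, about 3 SD of DMSO wells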;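 further: higher means less YB-1 transcript or more CDIP transcript relative to DMSO; stock transfer was 100 nL into about 100 µL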
MITF inhib: MITF inhibition | AID 2240 | TRPM1 promoter luciferase, luminescence, 24 h | actives 0.28% (n = 37,000) | inhibition, % (no concentration beside the values);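 active means most replicates at 85% or more, or half of them and the mean; inconclusive means half reach 85% but not the mean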;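 further: human melanocyte line stably carrying TRPM1 promoter luciferase reporter; 0% = vehicle wells and 100% = a positive control; the first replicate is given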
Shh pathway inh: blocks Sonic Hedgehog signaling; Shh-LIGHT2 Gli-luciferase reporter, 30 h; inhibition, % (no concentration beside the values); actives 2.1% (n = 22,000);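 active means replicate mean of 65% or more; inconclusive means mean lower but half the replicates past it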;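 further: pathway switched on by Shh-conditioned medium diluted 1 in 25 in low serum; 100 nL library stock added to about 40 µL; 0% = median of neutral wells and 100% = positive control level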
Numbers without * were called inactive; ? = inconclusive; · = not tested or not shown.

structure | PD-1 reverse act | YB-1 expr inh | MITF inhib | Shh pathway inh
C[C@@H]1CN([C@@H](C)CO)C(=O)c2cc(NC(=O)NC3CCCCC3)ccc2O[C@H]1CN(C)C(=O)NC1CCCCC1 | 1.8 | -0.059 | -2 | -5
C[C@@H]1CN([C@@H](C)CO)C(=O)Cc2cc(NC(=O)Nc3ccc(F)cc3)ccc2O[C@@H]1CN(C)C(=O)Nc1ccc(C(F)(F)F)cc1 | · | -0.74 | 13 | ·
C[C@@H]1CCCCO[C@H](CN(C)Cc2ccc(Cl)c(Cl)c2)[C@@H](C)CN([C@H](C)CO)C(=O)c2cc(NS(C)(=O)=O)ccc2O1 | · | 0.15 | -11 | 12
Cc1cc(C)cc(N(C(C)C(=O)Nc2cccc(Br)c2)S(C)(=O)=O)c1 (stereo not drawn) | -1.3 | · | 5 | ·
O=C(COC(=O)C1CC=CCC1C(=O)OCC(=O)c1ccc(Cl)cc1)c1ccc(Cl)cc1 (stereo not drawn) | -1.6 | -0.034 | 4 | ·
Cc1noc(C)c1S(=O)(=O)Nc1ccc2c(c1)C(=O)N([C@H](C)CO)C[C@@H](C)[C@H](CN(C)S(=O)(=O)c1ccc(Cl)cc1)O2 | 0.5 | -0.27 | -2 | -21
Cc1ccc(SCC(=O)c2ccc(CC(=O)O)s2)cc1 | 0.0 | 0.19 | 19 | -10
Cc1ccc(S(=O)(=O)N(C)C[C@@H]2Oc3ccc(NC(=O)CCCN(C)C)cc3C(=O)N([C@H](C)CO)C[C@H]2C)cc1 | -0.3 | 0.4 | 2 | 8
C[C@H]1CN([C@@H](C)CO)C(=O)c2cccc(NC(=O)c3ccncc3)c2O[C@@H]1CN(C)C | 0.5 | -0.43 | -4 | ?
COC(=O)c1c(C)oc2cc(Br)c(OCC(=O)c3ccc(F)cc3)cc12 | 0.0 | · | 14 | ·
CC(C)(C)c1ccc(OCC(=O)Nc2ccccc2-c2nc3ccccc3s2)cc1 | -2.0 | · | -52 | ·
COc1ccc(CN(C)C[C@H]2Oc3ccc(NS(=O)(=O)c4ccc(Cl)cc4)cc3C(=O)N([C@H](C)CO)C[C@H]2C)cc1 | · | -0.18 | -6 | 12

Record cards, from the list above. Values in the order: PD-1 reverse act, YB-1 expr inh, MITF inhib, Shh pathway inh
Shown for `Cc1ccc(S(=O)(=O)N(C)C[C@@H]2Oc3ccc(NC(=O)CCCN(C)C)cc3C(=O)N([C@H](C)CO)C[C@H]2C)cc1` : -0.3, 0.4, 2, 8
Shown for `COC(=O)c1c(C)oc2cc(Br)c(OCC(=O)c3ccc(F)cc3)cc12` : 0.0, ·, 14, ·

Returning to the listing, repeating the 2 entries before the break.
structure | PD-1 reverse act | YB-1 expr inh | MITF inhib | Shh pathway inh
CC(C)(C)c1ccc(OCC(=O)Nc2ccccc2-c2nc3ccccc3s2)cc1 | -2.0 | · | -52 | ·
COc1ccc(CN(C)C[C@H]2Oc3ccc(NS(=O)(=O)c4ccc(Cl)cc4)cc3C(=O)N([C@H](C)CO)C[C@H]2C)cc1 | · | -0.18 | -6 | 12
C[C@@H]1CN([C@@H](C)CO)C(=O)c2cc(NS(=O)(=O)c3ccc(F)cc3)ccc2O[C@@H]1CN(C)Cc1ccc2c(c1)OCO2 | 0.1 | 0.068 | 3 | 11
C[C@H](CO)N1C[C@H](C)[C@H](CN(C)Cc2ccc3c(c2)OCO3)Oc2c(NC(=O)Nc3ccc4c(c3)OCO4)cccc2C1=O | 1.0 | -0.25 | -14 | -54
C[C@H](CO)N1C[C@H](C)[C@H](CN(C)Cc2ccc3c(c2)OCO3)Oc2ccc(NC(=O)C3CC3)cc2CC1=O | 0.6 | 0.3 | -2 | -14
Clc1ccc(-c2ncc3ccccn23)cc1 | -2.2 | -0.37 | 4 | ·
C[C@H]1CN([C@@H](C)CO)C(=O)Cc2cc(NC(=O)Cc3cn(C)c4ccccc34)ccc2O[C@@H]1CN(C)C(=O)Nc1ccc(C(F)(F)F)cc1 | -1.6 | 0.017 | 39 | -9
C[C@H]1CN([C@@H](C)CO)C(=O)c2cc(NC(=O)c3ccncc3)ccc2O[C@@H]1CN(C)C(=O)Nc1ccc2c(c1)OCO2 | 1.1 | 0.06 | -10 | ·
C[C@H](CO)N1C[C@H](C)[C@H](CN(C)Cc2ccc(-c3ccccc3)cc2)Oc2ccc(NC(=O)C3CCCCC3)cc2C1=O | -5.1 | -0.11 | 19 | 22
COc1ccc(S(=O)(=O)N(C)C[C@@H]2Oc3ccc(NC(=O)Nc4cccc5ccccc45)cc3C(=O)N([C@H](C)CO)C[C@H]2C)cc1 | 0.8 | 0.31 | 0 | -9
C[C@@H]1CN([C@H](C)CO)C(=O)c2cccc(NC(=O)Nc3ccc4c(c3)OCO4)c2O[C@H]1CN(C)Cc1ccc(C(=O)O)cc1 | · | 0.57 | -16 | -26
CCCCC1(CO)C(=O)N(c2ccccc2)N(c2ccccc2)C1=O | 0.2 | 0.15 | 12 | -18
C[C@@H]1CCCCO[C@H](CN(C)Cc2ccc(Cl)c(Cl)c2)[C@@H](C)CN([C@H](C)CO)C(=O)c2cc(NS(=O)(=O)c3ccc(Cl)cc3)ccc2O1 | -5.0 | 0.16 | 53 | 20
C[C@H](CO)N1C[C@H](C)[C@H](CN(C)S(=O)(=O)c2ccc(F)cc2)Oc2c(NS(=O)(=O)c3ccc(F)cc3)cccc2C1=O | -2.8 | 0.19 | 9 | 9
COc1ccc(NC(=O)Nc2cccc3c2O[C@H](CN(C)S(=O)(=O)c2ccc(Cl)cc2)[C@H](C)CN([C@H](C)CO)C3=O)cc1 | · | 0.21 | -10 | 20
COC(=O)C1=C(C)Nc2ncnn2C1c1ccccc1[N+](=O)[O-] (stereo not drawn) | 2.2 | · | -3 | ·
C[C@@H]1CCCCO[C@@H](CN(C)Cc2ccc(C(=O)O)cc2)[C@@H](C)CN([C@H](C)CO)C(=O)c2cc(NC(=O)Cc3ccccc3)ccc2O1 | 1.1 | 0.23 | -13 | -14
C[C@H]1CN([C@@H](C)CO)C(=O)Cc2cc(NC(=O)Cn3cnnn3)ccc2O[C@@H]1CN(C)Cc1ccc(Cl)c(Cl)c1 | 5.2 | 0.034 | 15 | -16
COc1ccccc1CC(=O)Nc1ccc(-c2nnc(-c3ccc(C)cc3)o2)cc1 | 0.6 | · | 31 | ·
COc1ccc(NC(=O)Nc2cccc3c2O[C@@H](CN(C)C(=O)Nc2cccc4ccccc24)[C@@H](C)CN([C@H](C)CO)C3=O)cc1 | 3.1 | -0.19 | 5 | -21
Cn1ccnc1SCC(=O)Nc1cccc(F)c1 | 0.2 | · | -38 | ·
C[C@@H]1CN([C@@H](C)CO)C(=O)c2cc(NC(=O)CCN3CCOCC3)ccc2O[C@@H]1CN(C)Cc1ccc(C(=O)Nc2ccccc2N)cc1 | -1.6 | -0.37 | -10 | ·
C[C@H]1CN([C@@H](C)CO)C(=O)c2cccc(NS(C)(=O)=O)c2O[C@H]1CN(C)S(=O)(=O)c1cn(C)cn1 | · | -0.56 | -6 | 29
Cc1noc(C)c1NC(=O)N(C)C[C@H]1OCCCC[C@@H](C)Oc2ccc(NC(=O)c3ccncc3)cc2C(=O)N([C@H](C)CO)C[C@@H]1C | -1.6 | 0.33 | -12 | 10
Cc1cc(C(=O)Nc2cccc3c2O[C@@H](CN(C)C(=O)Nc2c(C)noc2C)[C@H](C)CN([C@H](C)CO)C3=O)n(C)n1 | 0.7 | 0.018 | -3 | -4
CCC1c2[nH]c3ccccc3c2CCN1C(=O)c1ccc(Cl)cc1 (stereo not drawn) | -0.4 | -0.064 | 16 | -30
C[C@H]1CN([C@@H](C)CO)C(=O)c2cccc(NC(=O)C3CCCCC3)c2O[C@@H]1CN(C)CC1CCCCC1 | · | 0.46 | -3 | 10
Cc1nc(-c2ccncc2)nc(NCCNc2ccc(C(F)(F)F)cn2)c1Cl | 0.6 | 0.082 | -7 | -19
COc1ccc(CN(C)C[C@H]2Oc3ccc(NC(=O)CCN4CCOCC4)cc3C(=O)N([C@@H](C)CO)C[C@@H]2C)cc1 | 1.3 | -0.11 | 3 | 7
C[C@H](O)C1=CC2(CC[C@@H]3C(C(=O)O)=CO[C@@H](O[C@@H]4O[C@H](CO)[C@@H](O)[C@H](O)[C@H]4O)[C@@H]32)OC1=O (stereo partly drawn) | · | 0.0048 | · | 13
Cc1noc(C)c1NC(=O)Nc1ccc2c(c1)C(=O)N([C@@H](C)CO)C[C@H](C)[C@@H](CN(C)C(=O)NC(C)C)O2 | 1.8 | 0.13 | -11 | -18
C/C(=C/CC[C@@H](CO)[C@H]1CC[C@@]2(C)[C@@H]3CC[C@H]4C(C)(C)[C@@H](O[C@@H]5O[C@H](CO)[C@@H](O)[C@H](O)[C@H]5O)C[C@H](O)[C@@]45C[C@@]35CC[C@]12C)CO | · | -0.28 | · | -10
C[C@@H]1CN([C@H](C)CO)C(=O)c2cc(NS(=O)(=O)c3cn(C)cn3)ccc2O[C@H]1CN(C)C(=O)Nc1ccccc1 | 1.7 | -0.97 | 2 | -1
C[C@@H]1CN([C@H](C)CO)C(=O)c2cccc(NC(=O)Nc3ccc(F)cc3)c2O[C@H]1CN(C)C | -1.1 | -0.11 | -13 | 8
CN(C)CCCc1cc(C(=O)Nc2ccc(-c3ccncc3)cc2)ccc1O | · | -0.19 | -27 | 39
C[C@@H]1CN([C@H](C)CO)C(=O)c2cccc(NC(=O)C3CCCCC3)c2O[C@@H]1CN(C)S(=O)(=O)c1ccc(F)cc1 | 0.8 | 0.066 | -1 | -33
C[C@@H]1CN([C@@H](C)CO)C(=O)c2cccc(NC(=O)Nc3ccc4c(c3)OCO4)c2O[C@H]1CN(C)S(=O)(=O)c1ccccc1 | -0.2 | 0.17 | 2 | -41
CS(=O)(=O)N(CC(=O)Nc1ccccc1-c1ccccc1)c1ccccc1Cl | 1.1 | · | -22 | ·
C[C@H](CO)N1C[C@H](C)[C@H](CN(C)Cc2ccc3c(c2)OCO3)Oc2ccc(NC(=O)CCN3CCOCC3)cc2C1=O | · | -0.39 | 8 | ·
CCOC(=O)C(C)Sc1nc(-c2cccs2)ccc1C#N (stereo not drawn) | -0.3 | 0.29 | -19 | 1
N#Cc1cc(Cc2ccc(N)c(C#N)c2)ccc1N | -0.5 | 0.044 | 16 | 20
C[C@H]1CN([C@@H](C)CO)C(=O)c2cc(NC(=O)Cc3cn(C)c4ccccc34)ccc2O[C@H]1CN(C)Cc1ccc(C(=O)O)cc1 | 1.8 | 0.31 | 15 | -20
O=C(COc1ccc2ccccc2c1)Nc1cccc(NC(=O)c2ccc(Cl)cc2Cl)c1 | -0.3 | · | -16 | ·
C[C@@H]1CN([C@@H](C)CO)C(=O)c2cc(NC(=O)Nc3ccc(F)cc3)ccc2O[C@@H]1CN(C)Cc1ccc(C(F)(F)F)cc1 | -1.3 | 0.24 | 63 | ·
COc1cc(C[C@@]2(O)C(=O)OC[C@@H]2Cc2ccc(OC)c(OC)c2)ccc1O | 0.7 | -0.14 | 67 | 50
Cc1ccc(S(=O)(=O)Nc2ccc3c(c2)C(=O)N([C@H](C)CO)C[C@H](C)[C@H](CN(C)Cc2ccc(Cl)c(Cl)c2)OCCCC[C@@H](C)O3)cc1 | -12 | -0.43 | 80 | -18
O=C(NCCCN1CCN(c2ccccc2[N+](=O)[O-])CC1)Nc1ccccc1F | 1.0 | · | -7 | ·
COC(=O)c1cc(NC(=O)C(C)N(c2ccc(C)cc2)S(C)(=O)=O)ccc1Cl (stereo not drawn) | -1.8 | · | 10 | ·
COC(=O)c1ccc(CSc2nnc(-c3ccncc3)o2)o1 | 0.3 | · | -18 | ·
Cc1[nH]c2ccccc2c1C(=O)CSc1nc2scc(-c3ccco3)c2c(=O)n1-c1ccccc1 | -1.0 | · | -22 | ·
C[C@@H]1CN([C@H](C)CO)C(=O)c2cc(NC(=O)C3CCCCC3)ccc2O[C@H]1CN(C)C(=O)NC1CCCCC1 | 0.2 | -0.34 | -3 | 32
C[C@H]1CN([C@@H](C)CO)C(=O)Cc2cc(NC(=O)Nc3ccccc3)ccc2O[C@@H]1CN(C)S(=O)(=O)c1cn(C)cn1 | 1.2 | 0.26 | -27 | -4
C[C@H]1CN([C@@H](C)CO)C(=O)c2cc(NC(=O)CCCN(C)C)ccc2O[C@H]1CN(C)Cc1ccncc1 | 6.8 | 0.21 | -6 | ·
CCCCCc1cc(OC)c2c(c1C(=O)O)OC(C)(C)C(O)C2 (stereo not drawn) | -1.1 | 0.055 | 2 | 16
c1ccc(N=C(Nc2ccccc2)Nc2ccccc2)cc1 | -1.2 | -1.2 | -8 | -24
C[C@H](CO)N1C[C@H](C)[C@H](CN(C)C(=O)Nc2ccccc2)Oc2ccc(NS(=O)(=O)c3ccc(Cl)cc3)cc2C1=O | -0.7 | 0.24 | -15 | ·
C[C@H](CO)N1C[C@H](C)[C@@H](CN(C)Cc2ccc(Cl)c(Cl)c2)Oc2c(NC(=O)c3ccncc3)cccc2C1=O | -2.2 | 0.12 | 3 | 25
C[C@H](CO)N1C[C@H](C)[C@H](CN(C)C(=O)Nc2cccc3ccccc23)Oc2ccc(N(C)C)cc2CC1=O | 0.6 | -0.4 | 24 | -25
Cc1noc(C)c1NC(=O)Nc1cccc2c1O[C@@H](CN(C)C)[C@@H](C)CN([C@@H](C)CO)C2=O | 2.2 | -0.087 | -6 | 7
C[C@H](CO)N1C[C@H](C)[C@H](CN(C)C(=O)NC2CCCCC2)Oc2c(NS(=O)(=O)c3ccc(Cl)cc3)cccc2C1=O | -2.0 | -0.63 | 15 | 100*

Screens (PubChem)

Some of the compounds tested; the hit share may differ from the screen's.
